GLA inh pH 4.5 = qHTS Assay for Inhibitors of Human alpha-Galactosidase at pH 4.5; Alpha-galactosidase A (Homo sapiens), P06280; purified enzyme, 4-MU-alpha-Gal fluorescence, pH 4.5; activity change, negative = inhibition, % at 105 µM; 230,000 tested, under 10 active; AID 1467, 2008; inconclusive = small, poorly fitted or top-dose-only inhibition, or a rising curve; inactive = flat fitted curve, though single readings scatter; no compound was filed as active;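 also: 0% = full activity with enzyme and -100% = basal without enzyme; dose as in the result columns while the protocol names 77 µM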
Rango release inh = qHTS Assay for Inhibitors of RanGTP induced Rango (Ran-regulated importin-beta cargo) - Importin beta complex dissociation. Potency, µM (doses to about 46.1 µM), for inactives: top-dose activity change, negative = inhibition. AID 540253, 2011. Biochemical FRET Rango-importin beta, RanGTP-induced dissociation. actives 0.071% (n = 340,000). Snurportin-1 (Homo sapiens) + GTP-binding nuclear protein Ran (Homo sapiens) + Importin …; active means falling FRET ratio curve, often poorly fitted, with flat reads before Ran was added; inconclusive means other falling curves, or compound fluorescence or quenching; inactive means flat or rising ratio curve;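 also: potency is read from the fitted curve at half-maximal effect; % of control where 0% means no effect; nearly all actives have a fitted effect of over 45% in size; -100% = wells without RanGTP and RCC1; the record marks most hits as doubtful in a second field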
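Quantitative HTS using a FRET biosensor: 0.1 uM Rango, 0.25 uM importin beta, 0.6 uM Ran, 2 mM GTP, 0.2 uM RCC1 final, PBS with DTT, Tween-20 and BSA. Post-read taken 45 min after Ran addition.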
Rango complex inh = qHTS Assay for Inhibitors of Rango (Ran-regulated importin-beta cargo) - Importin beta complex formation; Potency, µM (doses to about 92.2 µM), without a hit: at the highest dose inhibition of complex formation; Rango CFP/YFP FRET sensor + importin beta, 45 min; actives 0.031% (n = 340,000); Importin subunit beta-1 (Homo sapiens), Q14974; active = rising FRET ratio curve, often small or poorly fitted; inconclusive = mostly compound fluorescence or quenching in the first reads; inactive = flat curves in all reads;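 also: potency is read from the fitted curve at half-maximal effect; 0% = DMSO wells and 100% = buffer wells lacking importin beta; nearly all actives have a fitted effect of over 15% in size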
Target sequence (Q14974 whole entry, looked up): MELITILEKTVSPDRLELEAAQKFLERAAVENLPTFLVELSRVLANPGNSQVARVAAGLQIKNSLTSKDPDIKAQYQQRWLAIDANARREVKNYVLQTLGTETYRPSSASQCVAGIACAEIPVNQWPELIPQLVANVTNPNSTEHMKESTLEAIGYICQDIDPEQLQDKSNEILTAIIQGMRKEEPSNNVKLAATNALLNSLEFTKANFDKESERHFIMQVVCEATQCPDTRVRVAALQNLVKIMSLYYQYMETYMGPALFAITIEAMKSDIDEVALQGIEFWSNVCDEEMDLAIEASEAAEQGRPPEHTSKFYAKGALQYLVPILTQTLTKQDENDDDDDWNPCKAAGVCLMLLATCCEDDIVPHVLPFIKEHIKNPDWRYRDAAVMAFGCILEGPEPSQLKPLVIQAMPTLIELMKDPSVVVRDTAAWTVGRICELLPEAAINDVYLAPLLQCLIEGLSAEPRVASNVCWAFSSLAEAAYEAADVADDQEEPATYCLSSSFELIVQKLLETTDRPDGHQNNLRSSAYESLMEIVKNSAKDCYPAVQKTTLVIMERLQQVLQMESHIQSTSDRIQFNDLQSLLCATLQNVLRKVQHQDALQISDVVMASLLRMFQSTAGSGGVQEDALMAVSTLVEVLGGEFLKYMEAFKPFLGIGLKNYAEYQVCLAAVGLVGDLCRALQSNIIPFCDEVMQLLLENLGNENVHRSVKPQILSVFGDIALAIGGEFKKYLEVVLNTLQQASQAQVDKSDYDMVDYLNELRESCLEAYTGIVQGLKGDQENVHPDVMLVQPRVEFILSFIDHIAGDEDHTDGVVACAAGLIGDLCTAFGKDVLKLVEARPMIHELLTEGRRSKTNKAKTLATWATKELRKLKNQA
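FRET biosensor (snurportin 1 IBB flanked by EYFP and cerulean), 50 nM, with compound 5 min, then 0.125 microM importin beta in PBS, 1 mM DTT, 0.02% Tween-20, 0.1% BSA. CFP/YFP ratio read after 45 min at room temperature; pre-read flags interference.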
miR-21 reporter = qHTS Assay for Modulators of miRNAs and/orActivators of miR-21 | HeLa miR-21 FLuc reporter, luciferase, 48 h | Potency, µM (highest dose often 38.3 µM), inactives show at the top dose reporter change, positive = more light | 340,000 tested, under 10 active | AID 2288, 2010; active = well fitted rising curve with a large enough effect; inconclusive = small, poorly fitted or top-dose-only effect; inactive = no such curve, though single readings can be large or run the other way;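 also: % of control where 0% means no effect; miR-21 action dims this reporter so a rising signal means less miR-21 action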
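Luminescence from a firefly luciferase reporter carrying a miR-21 binding site downstream, stably expressed under a CMV promoter in HeLa cells that make miR-21 endogenously, reports miRNA modulation after 48 h compound exposure up to approximately 40uM final.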
An asterisk follows results filed as active; ? = inconclusive; . = not tested or not shown; [ ] = remark or other dose. A portion of the library, so the mix of outcomes need not match the whole.

Every second line gives: Rango complex inh | Rango release inh | miR-21 reporter | GLA inh pH 4.5
- COc1cccc(CNC(=O)CCC2CCCN(C(=O)Cc3ccccc3F)C2)c1 (centres undefined)
 : -3.0% | -17% | -5% | -1
- O=C(CN1C(=O)C2CC=CCC2C1=O)Nc1nnc(C2CC2)s1 (centres undefined)
 : -2.2% | 47% | . | .
- CCn1cc(C(=O)NC(C)C)c(=O)c2cc(F)c(N3CCN(C(=O)c4ccco4)CC3)cc21
 : 0.1% | -3% | 5% | .
- COc1ccccc1CN1CC(C(=O)NCc2ccc(N3CCCC3=O)cc2)CCC1=O (centres undefined)
 : 5.8% | 21% | 0% | .
- CCn1c(SCC(=O)Nc2ccccc2C(=O)OC)nnc1-c1ccoc1C
 : -1.1% | -16% | -2% | 1
- O=C(O)c1ccc(N2C(=O)CC(SC(=NCc3ccc4c(c3)OCO4)Nc3ccc(F)cc3)C2=O)cc1 (centres undefined)
 : 1.0% | 11% | 10% | -5
- CC(C)CC(C(=O)Nc1oc(-c2ccco2)c(-c2ccco2)c1C#N)N1C(=O)c2ccccc2C1=O (centres undefined)
 : 4.7% | -23% | 3% | -3
- CC(=O)C1=C(C)NC(=O)NC1/C=C/c1ccccc1 (centres undefined)
 : -0.9% | 2% | 2% | -4
- Cc1c(NC(=O)c2ccc(CN3CCc4ccccc4C3)cc2)c(=O)n(-c2ccccc2)n1C
 : 0.5% | -9% | 7% | 13
- Cc1ccccc1N1CCN(C2CCCN(C(=O)CCN3CCCO3)C2)CC1 (centres undefined)
 : -0.5% | -14% | -4% | .

The listing continues.
Every second line gives: Rango complex inh | Rango release inh | miR-21 reporter | GLA inh pH 4.5
- Cc1ccc2[nH]cc(/C=C/c3cc[n+](C)cc3)c2c1
 : ? | ? | ? | .
- O=C(Nc1ccc(Cl)cc1)N1CCCC1
 : 3.3% | -3% | -26% | 0
- CCOC(=O)C1Nc2ccc(C(F)(F)F)cc2C2C=CCC12 (centres undefined)
 : ? | ? | . | .
- COc1cccc(N2CCN(C(=O)CCCCCn3c(=S)[nH]c4cc5c(cc4c3=O)OCO5)CC2)c1
 : -4.7% | 1% | -1% | .
- O=C1NC2CCCCC2C(=O)N1OS(=O)(=O)c1ccccc1 (centres undefined)
 : 3.7% | -7% | . | .
- N/C(=N\OC(=O)c1cccs1)c1cccnc1
 : -3.8% | 3% | -56% | .
- COc1ccc(OCC(=O)N(Cc2cccs2)C2CCS(=O)(=O)C2)cc1 (centres undefined)
 : -4.0% | -19% | -5% | .
- CCNC(=O)Nc1ccc(-n2nc(C)c(C(=O)OCC)c2C)nc1
 : -6.1% | 15% | -17% | -19
- Cc1sc(NC(=O)C2CCCO2)c(C#N)c1C (centres undefined)
 : 8.6% | -15% | -24% | 4
- Cc1ccc(C(c2nnnn2CS(=O)(=O)c2ccc(C)cc2)N2CCCC2)cc1 (centres undefined)
 : 2.3% | 23% | 1% | 2

Other entries follow.
Every second line gives: Rango complex inh | Rango release inh | miR-21 reporter | GLA inh pH 4.5
- COc1ccccc1N1CCN(C(=O)c2cccc(NC3=NC4CS(=O)(=O)CC4S3)c2)CC1 (centres undefined)
 : 1.3% | 15% | 1% | .
- CC(=O)Oc1ccccc1-c1nc(C)nc(N(C)C(C)=O)n1
 : -3.1% | 0% | -36% | -1
- CCOC(=O)c1noc(C)c1C(=O)Nc1nccs1
 : 9.6% | 1% | 5% | 5
- Cc1oc2cc(O)ccc2c(=O)c1Oc1ccccc1Br
 : -2.0% | 1% | -7% | .
- Cc1ccc(-n2c(=O)c3ccccc3n(CC(=O)NCc3ccco3)c2=O)cc1
 : -0.7% | -14% | 6% | 9[21.1 µM]
- COc1ccc2c(c1)c(C(=O)O)c(C)n2-c1ccc(Cl)cc1
 : -3.8% | -11% | -2% | .
- C[C@H]1C(=O)N(C)CCN1Cc1cn(C)nc1-c1ccc(Oc2ccccc2)cc1
 : 0.6% | -7% | 10% | 2
- COc1cccc(-n2cnc3c(sc4nc(N5CCOCC5)c5c(c43)CCCC5)c2=O)c1
 : 0.2% | 5% | 0% | 1
- O=C(COC(=O)CNS(=O)(=O)c1cccc(Br)c1)Nc1ccccc1Sc1ccccc1
 : -1.8% | -12% | 1% | -4
- CS(=O)(=O)c1cccc(NC(=O)CSc2nnc3n2CCCCC3)c1
 : 2.2% | 25% | . | .

Following part
Every second line gives: Rango complex inh | Rango release inh | miR-21 reporter | GLA inh pH 4.5
- C/C(=N\NC(=O)c1cc(-c2ccncc2)nc2ccccc12)c1ccc(OC(F)F)cc1
 : -4.8% | -5% | 17% | -1
- COc1ccc(CCNC(=S)NC(=O)/C=C/c2ccc(C)cc2)cc1OC
 : 0.2% | -4% | -1% | 1
- O=C(Nc1ccccc1)/C(=C\c1ccc2c(c1)OCO2)NC(=O)c1ccco1
 : ? | -7% | -19% | .
- COc1cc(C(=O)Nn2cnnc2)ccc1OC(F)F
 : 3.1% | ? | -1% | .
- CC(=O)c1cccc(S(=O)(=O)N2CCC(C(=O)Nc3cccc(C(=O)NC4CC4)c3)CC2)c1
 : 2.2% | 13% | . | .
- Cc1ccc(C)c(NC(=O)CN(C)C(=O)c2cc(C3CC3)nn2-c2ccccc2)c1
 : 0.3% | 24% | . | .
- CC(C)(C)n1nnnc1C(c1ccccn1)N1CCN(C(c2ccccc2)c2ccccc2)CC1 (centres undefined)
 : -2.9% | 5% | 6% | ?
- CCc1nnc(NS(=O)(=O)c2ccc(NC(=O)c3cc(Cl)ccc3OC)cc2)s1
 : 0.6% | -2% | -7% | .
- O=C(NCCC1CCCCN1S(=O)(=O)c1ccccc1)C(=O)NCc1ccccc1F (centres undefined)
 : 2.8% | -5% | . | .
- Cn1c(=O)n(C)c2cc(/C=N/NC(=S)NCc3ccccc3)ccc21
 : -2.5% | 12% | -2% | 0

New compounds follow.
Every second line gives: Rango complex inh | Rango release inh | miR-21 reporter | GLA inh pH 4.5
- Cc1nc(N)sc1C(=O)Nc1ccccc1
 : 2.3% | 7% | -53% | 0
- COc1ccc(/C=N/NC(=O)c2cc(C)oc2C)cc1OC
 : 0.6% | 2% | -14% | -3
- CC1CCC(NC(=O)C(C)N2C(=O)C3CCCCC3C2=O)CC1 (centres undefined)
 : -3.7% | 0% | . | .
- O=C(NC1c2ccccc2-c2ccccc21)c1ccccc1
 : -0.3% | 5% | -3% | -1
- COc1ccc(NC(=O)C2=CN3CCS(=O)(=O)N=C3C=C2)c(OC)c1
 : -3.1% | 3% | . | .
- Cc1ccc2[nH]c(=S)cc(C)c2c1
 : -2.0% | -6% | -15% | -3
- Cc1ccc(S(=O)(=O)CCC(=O)OCC(=O)NCCc2ccc(F)cc2)cc1
 : 4.6% | 18% | . | .
- CCC(=O)c1ccc(OCC(=O)OCC(=O)NCCC2=CCCCC2)cc1
 : 0.8% | 5% | . | .
- CC(=O)NC(Cc1ccc(F)cc1)C(=O)NC1CCN(C(=O)Nc2ccc(F)cc2)CC1 (centres undefined)
 : -3.2% | 29% | 0% | .
- COc1ccc2c(=O)c3c(=O)n(Cc4ccco4)c(C4CCCCC4)nc3oc2c1
 : . | . | -3% | -6

Next section
Every second line gives: Rango complex inh | Rango release inh | miR-21 reporter | GLA inh pH 4.5
- COc1ccc(-c2cn[nH]c2-c2ccc(OCc3ccc(F)cc3)cc2O)cc1OC
 : 2.6% | 28% | ? | -26
- CCC(c1nnnn1CCOC)N(Cc1ccc(C)cc1)Cc1cc2cc(OC)ccc2[nH]c1=O (centres undefined)
 : 0.6% | -14% | -8% | -3
- CCCCNC(=O)CSc1nnc(-c2cccc(S(=O)(=O)N3CCOCC3)c2)o1
 : 1.1% | 1% | . | .
- CC(=O)c1cccc(NC(=O)COC(=O)CCC(=O)c2cccs2)c1
 : 2.0% | 8% | . | .
- Cc1ccc(OCC(=O)OC2CCCN(C)C2)cc1 (centres undefined)
 : -0.2% | 0% | -2% | -1
- C/C(=C\c1ccccc1)C(=O)N1CCN(Cc2ccc3c(c2)OCO3)CC1
 : -1.0% | -8% | 13% | .
- O=C(Cn1c(CO)nc2ccccc21)NC1CCCCCC1
 : . | . | -1% | 9
- CCOC(=O)C1CCN(Cc2c(O)ccc3ccccc23)CC1
 : 1.4% | -7% | -7% | -15
- CCCCN(C)C(=O)c1nc2ccccn2c1CN1CCN(c2cnccn2)CC1
 : 7.8% | 3% | -5% | -17
- CCN(CC)c1ccc(C=C(c2nnnn2-c2ccccc2)c2nnnn2-c2ccccc2)cc1
 : ? | ? | -11% | -2

Next section.
Every second line gives: Rango complex inh | Rango release inh | miR-21 reporter | GLA inh pH 4.5
- CCCOc1ccc(N2C(=O)CC(N(Cc3ccco3)C(=O)CC)C2=O)cc1 (centres undefined)
 : -1.8% | 19% | 2% | 4
- O=C(OCC(=O)c1ccc(Cl)s1)c1cnccn1
 : -0.2% | 8% | 0% | .
- CN(c1ccc(C(=O)NC2CCCCC2)cc1)S(=O)(=O)c1ccccc1
 : -1.2% | 17% | . | .
- Cc1cc(F)ccc1S(=O)(=O)Nc1ncnc2sc3c(c12)CCC3
 : 0.2% | 12% | -3% | 2
- CCOCCCn1c(C)nc2c(c1=O)c1nc3ccccc3nc1n2-c1ccc(C)cc1
 : 0.2% | 2% | -1% | 1
- CN(C)S(=O)(=O)N1CCN(c2cccc(Cl)c2)CC1
 : -5.8% | 14% | -7% | -2
- Cc1c(Cc2ccccc2)c(=O)n2c([nH]c3ccccc32)c1C#N
 : -5.9% | 1% | 6% | ?
- CC(=O)N1CCN(C(=O)/C(C#N)=C/c2ccc3c(c2)OCO3)CC1
 : 0.6% | 3% | 5% | .
- Cc1ccc(NC(=O)NCc2ccccn2)cc1Cl
 : 1.3% | 34% | -23% | .
- COc1ccc(NC(=O)C(=O)NNC(=O)COc2ccc(OC)cc2)cc1
 : -3.2% | 23% | -6% | .

More results.
Every second line gives: Rango complex inh | Rango release inh | miR-21 reporter | GLA inh pH 4.5
- Cc1cc(SCc2ccc(F)cc2)nc(=O)[nH]1
 : -1.5% | -8% | -5% | .
- CC(=O)Nc1ccc(/C(C)=N/NC(=O)c2ccc(COc3ccccc3Cl)o2)cc1
 : -2.6% | -5% | . | .
- Cc1ccc(-c2nnn(CC(=O)Nc3cccc4cccnc34)n2)o1
 : 0.4% | 27% | -1% | -2
- O=C(COC(=O)C12CC3CC(CC(C3)C1)C2)Nc1ccc2[nH]c(=O)[nH]c2c1
 : 1.5% | 56% | -11% | .
